# miR-21 reporter – qHTS Assay for Modulators of miRNAs and/orActivators of miR-21. 340,000 tested, under 10 active. HeLa miR-21 FLuc reporter, luciferase, 48 h. AID 2288, 2010. Potency, µM (highest dose often 38.3 µM), inactives show at the top dose reporter change, positive = more light; active = well fitted rising curve with a large enough effect; inconclusive = small, poorly fitted or top-dose-only effect; inactive = no such curve, though single readings can be large or run the other way;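 also: % of control where 0% means no effect; miR-21 action dims this reporter so a rising signal means less miR-21 action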
#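 HeLa cells stably expressing CMV-driven firefly luciferase with a downstream miR-21 binding sequence, endogenously expressing miR-21, were treated with titrations (up to about 40uM final) for 48 hours at 37 degree Celsius. Luciferase luminescence was read after lysis.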
# Rango release inh – qHTS Assay for Inhibitors of RanGTP induced Rango (Ran-regulated importin-beta cargo) - Importin beta complex dissociation; Biochemical FRET Rango-importin beta, RanGTP-induced dissociation; 340,000 tested, 0.071% active; Potency, µM (top dose mostly 46.1 µM), inactives show at the highest dose activity change, negative = inhibition; active means falling FRET ratio curve, often poorly fitted, with flat reads before Ran was added; inconclusive means other falling curves, or compound fluorescence or quenching; inactive means flat or rising ratio curve;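 also: potency is read from the fitted curve at half-maximal effect; % of control where 0% means no effect; nearly all actives have a fitted effect of over 45% in size; -100% = wells without RanGTP and RCC1; the record marks most hits as doubtful in a second field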
#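 Compounds preincubate 5 min with complex of recombinant Rango and importin beta in PBS with 1 mM DTT. Ran (0.6 uM) loaded with 2 mM GTP plus 0.2 uM RCC1 starts dissociation; FRET is recorded 45 min later.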
# GLA inh pH 4.5 – qHTS Assay for Inhibitors of Human alpha-Galactosidase at pH 4.5; Alpha-galactosidase A (Homo sapiens), P06280; purified enzyme, 4-MU-alpha-Gal fluorescence, pH 4.5; activity change, negative = inhibition, % at 105 µM; 230,000 tested, under 10 active; AID 1467, 2008; inconclusive = small, poorly fitted or top-dose-only inhibition, or a rising curve; inactive = flat fitted curve, though single readings scatter; no compound was filed as active;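 also: 0% = full activity with enzyme and -100% = basal without enzyme; dose as in the result columns while the protocol names 77 µM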
# Rango-impB inh – qHTS Assay for Inhibitors of Rango (Ran-regulated importin-beta cargo) - Importin beta complex formation. Importin subunit beta-1 (Homo sapiens), Q14974. Rango CFP/YFP FRET sensor + importin beta, 45 min. Potency, µM (titrated, usually from 92.2 µM), inactives show at the highest dose inhibition of complex formation. 340,000 tested, 0.031% active. AID 540263, 2011; active = rising FRET ratio curve, often small or poorly fitted; inconclusive = mostly compound fluorescence or quenching in the first reads; inactive = flat curves in all reads;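 also: potency is read from the fitted curve at half-maximal effect; 0% = DMSO wells and 100% = buffer wells lacking importin beta; nearly all actives have a fitted effect of over 15% in size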
# Target sequence (Q14974 whole entry, looked up): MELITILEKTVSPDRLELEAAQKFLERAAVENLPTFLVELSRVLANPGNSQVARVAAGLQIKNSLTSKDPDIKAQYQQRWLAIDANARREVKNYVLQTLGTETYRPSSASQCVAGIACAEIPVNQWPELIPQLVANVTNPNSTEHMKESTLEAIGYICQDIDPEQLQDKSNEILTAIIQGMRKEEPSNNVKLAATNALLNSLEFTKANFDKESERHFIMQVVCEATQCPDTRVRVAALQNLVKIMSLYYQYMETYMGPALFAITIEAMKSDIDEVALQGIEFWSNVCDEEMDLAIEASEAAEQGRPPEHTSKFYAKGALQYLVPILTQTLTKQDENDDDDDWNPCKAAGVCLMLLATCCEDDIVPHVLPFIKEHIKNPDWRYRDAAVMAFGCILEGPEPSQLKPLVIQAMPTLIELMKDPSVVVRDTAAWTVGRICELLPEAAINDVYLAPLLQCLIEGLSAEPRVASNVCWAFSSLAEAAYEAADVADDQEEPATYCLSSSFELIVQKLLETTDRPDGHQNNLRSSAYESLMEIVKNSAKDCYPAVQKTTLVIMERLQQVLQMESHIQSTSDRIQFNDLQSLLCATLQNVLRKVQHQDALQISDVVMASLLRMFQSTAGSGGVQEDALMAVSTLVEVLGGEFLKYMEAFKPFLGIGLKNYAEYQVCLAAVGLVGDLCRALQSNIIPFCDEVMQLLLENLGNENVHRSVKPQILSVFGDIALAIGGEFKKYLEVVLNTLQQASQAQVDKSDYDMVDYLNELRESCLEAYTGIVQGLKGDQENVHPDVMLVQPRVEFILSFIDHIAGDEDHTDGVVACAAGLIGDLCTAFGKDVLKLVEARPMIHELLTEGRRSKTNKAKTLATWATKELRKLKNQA
#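 FRET biosensor Rango (snurportin 1 IBB between N-terminal EYFP and C-terminal Cerulean), 50 nM in PBS/1 mM DTT/0.02% Tween-20/0.1% BSA, preincubated 5 min RT with compound; 0.125 microM importin beta added, 45 min RT, CFP/YFP FRET ratio read.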
# Starred values were filed as active, the others as inactive; ? = inconclusive; · = no result given; & = joins results of further samples; [ ] = dose if it differs, or a comment. These rows are one share of the data (hit frequency here may not be typical).
SMILES,miR-21 reporter,Rango release inh,GLA inh pH 4.5,Rango-impB inh
COc1ccc(CCN(C)C(=O)c2ccc(C)c(S(=O)(=O)N3CCCCC3)c2)cc1OC,·,7%,·,-1.6%
COc1cc(/C=C/C(=O)OCC(=O)Nc2cc(C)on2)ccc1OCC#N,·,-3%,·,-0.9%
CCOCCCn1c(=NC(=O)c2cccs2)c(C#N)cc2c(=O)n3ccccc3nc21,2%,?,?,?
COc1ccc(S(=O)(=O)/C(C#N)=C/Nc2ccccc2F)cc1,0%,12%,·,2.3%
Cc1csc(NC(=O)C2CCCCN2S(=O)(=O)c2ccccc2)n1 (stereo not drawn),-4%,0%,0,-2.5%
CCCSc1nc(C)cc(C)c1S(C)(=O)=O,-8%,-1%,0,1.5%
C[C@@H]1C(c2ccc(F)cc2)=NN(c2ccccc2)[C@H]1C(=O)N1CCOC1=O,·,0%,-11,-3.6%
CCCn1c(SCC(=O)Nc2ccccc2C(=O)OC)nc2c1c(=O)n(C)c(=O)n2C,-6%,2%,1,3.0%
Cn1c(CNc2nc(-c3ccccc3)cs2)nnc1SCC(=O)N1CCc2ccccc21,-1%,22%,-4,0.5%
Cc1ccc(-c2nnn(CC(=O)N(Cc3ccco3)C(C(=O)NC(C)(C)C)c3cccs3)n2)o1 (stereo not drawn),0%,-12%,-2,-4.8%
COc1cc(/C=N/N=C(\N)c2nonc2N)ccc1O,-43%,-3%,-6[21.1 µM],1.5%
CCOc1ccc(-n2c(SCC(=O)Nc3ccc(OC)cc3OC)nc3c(c2=O)SCC3)cc1,-1%,-8%,3,3.5%
O=C(c1ccccc1)N1CCn2c(nc3ccccc32)C1,-4%,26%,7,0.1%
COc1ccc(S(=O)(=O)N2N=C(C)Oc3ccccc3C2=O)cc1,22%,-1%,3,2.6%
O=C(NCC1COc2ccccc2O1)c1ccc(Br)s1 (stereo not drawn),-49%,0%,·,-0.8%
C=CCNC(=O)/C(C#N)=C/c1ccccc1[N+](=O)[O-],-2%,?,-5,?
O=C(N/N=C/c1cn(Cc2cccc(F)c2)c2ccccc12)c1cc(O)cc(O)c1,-19%,-11%,·,?
Cn1c(=O)n(C)c2cc(NC(=O)COc3ccc(Cl)cc3)ccc21,15%,6%,10,-1.7%
CC(NC(=O)CCc1nc2cc(S(=O)(=O)N3CCOCC3)ccc2n1C)c1ccc(S(N)(=O)=O)cc1 (stereo not drawn),-2%,6%,·,0.7%
C=CCNC(=O)/C(C#N)=C/c1ccc(OS(=O)(=O)c2ccc(C)cc2)c(OC)c1,1%,8%,-3,0.0%
Cc1ccccc1C(=O)NC(=S)N(Cc1ccccc1)c1ccccn1,·,6%,·,2.1%
CCN(CC)Cc1ccccc1Sc1ccccc1,-5%,11%,-4,-1.2%
CCOc1cc(NC(=O)c2cccs2)c(OCC)cc1NC(=O)CCC(=O)NCc1ccccn1,0%,20%,4,0.3%
CC1(C)CC(=O)C=C(N=CC2=C(O)CC(C)(C)CC2=O)C1,-2%,?,7,?
Cc1ccc(S(=O)(=O)Nc2ccncc2)c(C)c1N(C)S(=O)(=O)c1ccc(Cl)cc1,-15%,-5%,-4,0.0%
SMILES,miR-21 reporter,Rango release inh,GLA inh pH 4.5,Rango-impB inh
COc1cccc(OC2OC3COC(C)(C)OC3C(O)C2NC(C)=O)c1 (stereo not drawn),-4%,2%,1,-1.6%
CC1CCN(S(=O)(=O)c2ccc(C(=O)NCc3cccnc3)cc2)CC1,-4%,9%,2,1.3%
O=C(COC(=O)Cc1c(F)cccc1Cl)Nc1nnc(-c2ccccc2)o1,·,-9%,·,-0.1%
CN(C)c1cccc(NC2=CC(=[N+]3CCOCC3)CC(C)(C)C2)c1,-1%,-21%,-6,?
COc1ccc(CNC(=O)c2ccc[nH]2)cc1Cl,3%,2%,-2,-1.9%
COC(=O)c1ccccc1S(=O)(=O)N1CCC(C(=O)OC(C)C(=O)Nc2ccc(NC(C)=O)cc2)CC1 (stereo not drawn),1%,-9%,·,2.9%
CCN(CC)C(=O)c1sc2nc(-c3ccccn3)[nH]c(=O)c2c1C,·,-4%,·,1.1%
CCOC(=O)NNC(=S)Nc1c(C)n(C)n(-c2ccccc2)c1=O,1%,3%,-3,0.0%
O=C(CSc1nc(COc2ccccc2)nc2ccccc12)NC1CCCC1,-2%,-22%,4,?
NC(=O)c1ccc(-c2csnn2)cc1,1%,23%,5,-2.5%
COc1cccc(NC2=Nc3cccc4cccc2c34)c1,-42%,2%,1,58µM*
CN(C1CCCCC1)S(=O)(=O)c1ccc(C(=O)Nc2sc3c(c2C(N)=O)CC(C)(C)NC3(C)C)cc1,-3%&-6%,-18%,·,?
O=C(c1cccc(S(=O)(=O)N2CCCC2)c1)N1CCN(c2ncccn2)CC1,-2%,20%,0,0.6%
CN1CCN(C(=O)CNC(=O)Cc2ccc(Cl)cc2)CC1,-7%,1%,·,2.2%
Cc1cc(Cl)c(S(=O)(=O)N2CCN(c3ccccc3)CC2)cc1OCC(N)=O,-2%,-4%,1,5.0%
O=C(CN1CCCC1)Nc1ccccc1Cl,-4%,16%,-1,3.3%
CC(O)CNc1cnccn1 (stereo not drawn),1%,-9%,-1,-1.4%
CCC(Sc1nc2ncccc2[nH]1)C(=O)N1CCOCC1 (stereo not drawn),-3%,6%,·,-1.7%
O=C1c2ccsc2SCCN1Cc1ccc(Cl)cc1Cl,-8%,9%,-1,-2.1%
O=C(COC(=O)c1cc([N+](=O)[O-])ccc1NCc1ccccc1)NC1CCCc2ccccc21 (stereo not drawn),-2%,4%,-3,-4.4%
CC(=O)Nc1cccc(C(=O)OCC(=O)NC2CCCCCCC2)c1,·,10%,·,5.0%
CCNc1nc(=S)nc(NCc2ccccc2)[nH]1,3%,·,6,·
O=C(Cn1cc([N+](=O)[O-])ccc1=O)NCC1COc2ccccc2O1 (stereo not drawn),·,-4%,·,-0.4%
Cc1noc(C)c1COc1ccc(C(=O)OC(C)C(=O)Nc2ccc(S(=O)(=O)N3CCOCC3)cc2)cc1 (stereo not drawn),-2%,6%,-1,-0.6%
Cc1ccc(NC(=O)c2ncn(CCCNCC(C)c3ccccc3)n2)cc1C (stereo not drawn),·,-2%,·,3.2%

# Single entries from above:
# CCC(Sc1nc2ncccc2[nH]1)C(=O)N1CCOCC1 (stereo not drawn) in Rango-impB inh is entered as -1.7%
# COC(=O)c1ccccc1S(=O)(=O)N1CCC(C(=O)OC(C)C(=O)Nc2ccc(NC(C)=O)cc2)CC1 (stereo not drawn) in miR-21 reporter is entered as 1%

# New compounds follow.
SMILES,miR-21 reporter,Rango release inh,GLA inh pH 4.5,Rango-impB inh
Cc1cc(C)nc(NC(=O)c2c(-c3ccccc3Cl)noc2C)n1,-6%,-7%,-15,0.5%
COc1ccc(CCC(=O)NCC(c2ccco2)N2CCc3ccccc32)cc1 (stereo not drawn),·,9%,·,-1.5%
Cc1cccn2c(=O)c3cc(C(=O)N4CCN(Cc5ccccc5)CC4)sc3nc12,·,?,·,?
O=C(NC1CCCC1)C(c1ccccc1)N(Cc1ccc(F)cc1)C(=O)c1csnn1 (stereo not drawn),1%,1%,·,0.5%
CCC(C)C(NS(=O)(=O)c1ccc(C)cc1)C(=O)NCCCN1CCOCC1 (stereo not drawn),-3%,12%,·,3.7%
O=C1c2ccc(-c3ccc(F)cc3OCc3ccccc3)cc2S(=O)(=O)c2cccc(C(=O)N3CCN(c4ncc(Br)cn4)CC3)c21,·,-7%,·,3.0%
COc1ccc(NC(=S)N(CCO)Cc2cc3c(C)cc(C)cc3[nH]c2=O)cc1,4%,?,0,-1.0%
O=[N+]([O-])c1ccc(N2CCN(CCOCCO)CC2)c([N+](=O)[O-])c1,1%,2%,-1,2.8%
CCC1=NC(c2ccccc2Cl)N(O)C1(C)C (stereo not drawn),-1%,8%,4,0.3%
CC1(NC(=O)CCc2nc3ccccc3c(=O)[nH]2)CCS(=O)(=O)C1 (stereo not drawn),1%,22%,·,3.3%
COCc1c(C(=O)N/N=C\c2cccs2)nnn1-c1nonc1N,0%,5%,·,0.7%
CCOC(=O)C1(Cc2cccc(OC)c2)CCN(Cc2ccc(OC)c(O)c2)CC1,0%,10%,-14,-2.3%
COc1ccc(OCc2nnc(SCC(=O)Nc3ccccc3C#N)o2)cc1,-4%,1%,·,-1.5%
CCOc1cc(CNCc2cc(OC)cc(OC)c2)ccc1OC,16%,5%,·,-4.5%
COc1cccc(C2CC(c3cccc(Br)c3)n3nc(N)nc3N2)c1 (stereo not drawn),0%,-5%,-9,?
O=C(Nc1ccc(CN2CCOCC2)cc1)c1ccc(-c2ccc(Cl)cc2Cl)o1,27%,9%,-4,0.2%
O=C(CN1c2cccc3cccc(c23)S1(=O)=O)N1CCN(c2ccc(F)cc2)CC1,·,19%,·,-3.6%
Cc1cccc(C(=O)NCC(=O)N2CCN(c3ccccn3)CC2)c1,·,7%,·,2.4%
COc1ccc2[nH]cc(CCN3C(=O)CCC3=O)c2c1,-3%,-7%,0,0.6%
CCOc1ccc(OCC)c(NC(=O)C2CCCN(c3ncccn3)C2)c1 (stereo not drawn),-6%,-7%,-6,-0.4%
Cc1cc(Nc2ncc(Cl)cc2Cl)n[nH]1,-18%,7%,-22,1.1%
COCCC(=O)N1CCC(Oc2ccc(C(=O)NCCc3cn[nH]c3)cc2)CC1,-2%,3%,·,-1.9%
C[C@H](CO)N1C[C@H](C)[C@@H](CN(C)C(=O)Nc2ccc(C(F)(F)F)cc2)Oc2ccc(NC(=O)CCC(F)(F)F)cc2C1=O,·,18%,·,0.3%
CCCCCC(=O)Nc1cccc(-c2nc3ncccc3o2)c1,0%,-20%,-2,-2.4%
CCCc1nc2scc(-c3ccc(C)cc3)c2c(=O)n1N,-5%,-13%,6,-0.9%

# 4 compounds from above, limited to Rango release inh.
SMILES | Rango release inh
CCOc1cc(CNCc2cc(OC)cc(OC)c2)ccc1OC | 5%
COc1cccc(C2CC(c3cccc(Br)c3)n3nc(N)nc3N2)c1 (stereo not drawn) | -5%
O=C(Nc1ccc(CN2CCOCC2)cc1)c1ccc(-c2ccc(Cl)cc2Cl)o1 | 9%
O=C(CN1c2cccc3cccc(c23)S1(=O)=O)N1CCN(c2ccc(F)cc2)CC1 | 19%

# The list continues:
SMILES,miR-21 reporter,Rango release inh,GLA inh pH 4.5,Rango-impB inh
O=C(CN1C(=O)c2ccccc2C1=O)OC(C(=O)c1ccc(Cl)cc1)c1ccccc1 (stereo not drawn),-5%,-9%,-5,-0.3%
Cc1nn(CC(=O)Nc2ccc(N3CCOCC3)cc2)c(C)c1Cl,1%,5%,·,2.3%
Cn1c(CNC(=O)OC(C)(C)C)n[nH]c1=S,-9%,3%,-3,-2.6%
Cc1ccc(C(=O)NC(=S)NCC2CCCO2)cc1Br (stereo not drawn),-74%,-12%,1,0.2%
COc1ccc(CNC(=O)c2ccc(CS(=O)c3ccccc3)o2)cc1 (stereo not drawn),1%,1%,·,0.3%
COc1ccccc1S(=O)(=O)Cc1ccc(C(=O)NCC(OC)OC)o1,-1%,9%,·,1.0%
CCc1ccc(NC(=O)COC(=O)CCCC2=NS(=O)(=O)c3ccccc3N2)cc1,-1%&0%,18%,0,-2.3%
CCC1(c2ccccc2)SC(N)=NC1=O (stereo not drawn),·,-7%,·,-0.9%
COc1ccc(C2=NNC(c3cc(Cl)cc4c3OCOC4)C2)c(O)c1 (stereo not drawn),-14%,·,5,·
COCCn1nnnc1C(c1ccc(OC)cc1OC)N1CCN(c2ccccc2)CC1 (stereo not drawn),-8%,16%,-10,3.3%
COc1ccc2[nH]c(C(=O)NCc3ccccc3)cc2c1,-6%,1%,-5,-2.3%
COc1ccc(N=Cc2c[nH][nH]c2=O)cc1,-9%,6%,-4,-3.3%
CCCNC(=O)COC(=O)c1ccccc1C(=O)N(C)C1CCCCC1,0%,0%,8,2.2%

# Marked active in Rango-impB inh, of those listed so far:
SMILES,miR-21 reporter,Rango release inh,GLA inh pH 4.5,Rango-impB inh
COc1cccc(NC2=Nc3cccc4cccc2c34)c1,-42%,2%,1,58µM*

# Source: PubChem BioAssay (National Center for Advancing Translational Sciences (NCATS))
